Resorufin fluor: resorufin region autofluorescence. Compound fluorescence, resorufin region 547/598 nm, buffer; stronger effect = higher value. max dye-equivalent concentration, M. 0.04% of 59,000 active. AID 588; active = above 10 nM dye equivalent; inconclusive = 1 to 10 nM; inactive = 1 nM or less; a few of its hits are not listed in these tables; note: highest value over a series up to 38 µM
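Tris 100 mM pH 8.0; compound added, 15 min RT; CCD imager read, ex 547 nm/em 598 nm; signal normalized to resorufin standard curve (six concentrations per plate) as dye-equivalent concentration.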
A488 autofl: compound autofluorescence in A488 spectral region. compound autofluorescence, A488 spectral region, dye equivalency; stronger effect = higher value. max dye equivalency, M. 0.1% of 59,000 active; active = above 10 nM dye equivalent; inconclusive = 1 to 10 nM; inactive = 1 nM or less; about half of its hits are not listed in these tables;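 note: highest value over a series up to 38 µM; compound alone in buffer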
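Compounds pin-transferred into 100 mM Tris buffer, pH 8.0, incubated 15 min at room temperature, then imaged with 480 nm excitation/540 nm emission filters. Fluorescence converted to Alexa 488 dye-equivalent concentration via an on-plate six-point A488 standard curve.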
AID923: qHTS Assay for Allosteric/Competitive Inhibitors of Caspase-1: Spectroscopic Profiling in AFC Spectral Region; Potency, µM (series often up to 57.5 µM), inactives show at the top dose fluorescence increase, actives largely listed as activators; 1.1% of 75,000 active; compound fluorescence, AFC spectral region (405/520 nm); almost no hit is shown here; active = well fitted activation curve with a large enough effect; inconclusive = small, poorly fitted or top-dose-only effect;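 note: potency is the fitted concentration of half-maximal effect; 0% is about no effect; scaled to a free AFC standard on each plate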
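Titrations up to 57 uM read every 20 sec for 3 min (405/520 nm) with 50 nM caspase 1 and 5 uM Ac-WEHD-AFC, pH 7.5 HEPES buffer. Fluorescence-vs-time intercept gave baseline, scaled against on-plate AFC standard.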
TSHR agonist: activates the human thyroid stimulating hormone receptor; P16473; HEK293-CNG-TSHR cells (CNG channel as cAMP sensor), membrane potential dye, cAMP; Potency, µM (highest dose often 57.1 µM), without a hit: top-dose activation, actives largely listed as activators; 0.48% of 73,000 active; AID 926; active = well fitted activation curve of enough size with the parental cells flat; inconclusive = any curve in the parental cells; inactive = parental cells flat and receptor cells flat or falling; note: potency is the fitted concentration of half-maximal effect; % of control where 0% means no effect; weak receptor curves with flat parental cells got no call and are not listed
Target sequence (P16473 whole entry, looked up): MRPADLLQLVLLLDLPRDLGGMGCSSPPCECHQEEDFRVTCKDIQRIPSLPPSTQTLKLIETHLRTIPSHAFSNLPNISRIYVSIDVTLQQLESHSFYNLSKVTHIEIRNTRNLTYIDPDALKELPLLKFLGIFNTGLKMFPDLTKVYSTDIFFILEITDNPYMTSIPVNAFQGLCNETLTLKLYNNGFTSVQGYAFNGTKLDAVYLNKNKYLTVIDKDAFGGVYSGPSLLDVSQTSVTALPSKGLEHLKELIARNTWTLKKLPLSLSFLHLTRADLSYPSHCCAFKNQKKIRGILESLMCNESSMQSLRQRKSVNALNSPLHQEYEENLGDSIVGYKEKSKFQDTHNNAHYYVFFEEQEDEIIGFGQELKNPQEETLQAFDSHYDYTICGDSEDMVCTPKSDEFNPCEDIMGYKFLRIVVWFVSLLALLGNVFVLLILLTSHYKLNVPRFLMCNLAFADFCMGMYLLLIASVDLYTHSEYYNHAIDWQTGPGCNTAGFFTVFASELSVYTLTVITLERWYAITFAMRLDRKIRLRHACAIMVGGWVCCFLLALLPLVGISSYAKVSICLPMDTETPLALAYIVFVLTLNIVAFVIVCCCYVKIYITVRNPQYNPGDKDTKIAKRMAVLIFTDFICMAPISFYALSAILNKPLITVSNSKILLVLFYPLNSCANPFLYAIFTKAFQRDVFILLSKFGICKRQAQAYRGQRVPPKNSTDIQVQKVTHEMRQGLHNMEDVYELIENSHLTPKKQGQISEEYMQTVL
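HEK 293 cells stably expressing TSHR and a cAMP-gated CNG channel; parental CNG-only cells as counterscreen. Cells preloaded 60 min with membrane potential dye plus 100 uM RO 20-1724, then compound 30 min; fluorescence read at 590 nm.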
A647 fluor: compound fluoresces in the A647 spectral region. Compound fluorescence, A647 channel (570/671 nm), Tris buffer. max dye-equivalent concentration, M. 59,000 tested, under 10 active. AID 592; active means above 1 µM dye equivalent; inconclusive means 0.1 to 1 µM; inactive means 0.1 µM or less;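 note: values scaled relative to a standard on each plate; highest value over a series up to 38 µM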
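Compounds pinned into 100 mM Tris pH 8.0, 15 min at room temperature, then read with 570 nm excitation/671 nm emission filters. Fluorescence normalized to an on-plate six-point Alexa 647 standard curve, giving dye-equivalent concentration per compound concentration.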
* = called active by the depositor; i = inactive; ? = inconclusive; . = no result given; [ ] = another dose, or the depositor's remark.

SMILES | Resorufin fluor | A488 autofl | AID923 | TSHR agonist | A647 fluor
COc1ccc(C(=O)N2CCC3(CC2)CCN(c2ccncc2)CC3)cc1 | i | i | 1.0% | 3% | 2.2e-08
CCOc1ccc(-n2c(SCC(=O)Nc3ccc4c(c3)OCO4)nc3c(c2=O)SCC3)cc1 | . | . | 1.8% | 6% | .
O=C(CN1C2CCC1CC(NC(=O)C1CC1)C2)NCc1ccccc1 (configuration not stated) | i | i | -0.6% | 1% | 1.2e-08
CC1(c2ccccc2)CC(c2ccccc2)=Nc2nonc2N1 (configuration not stated) | i | i | 1.3% | 10%[11.4 µM] | 2.4e-08
COc1ccc(-c2nnn(CC(=O)N(C3CCCCC3)C(C)C(=O)NC3CCCC3)n2)cc1OC (configuration not stated) | i | i | -0.1% | ? | 5.1e-08
CCOC(=O)C(NC(=O)N1CCCCC1)(c1ccccc1)C(F)(F)F (configuration not stated) | i | i | -0.7% | -1% | 3.2e-08
Cc1cc(C)nc(-n2nc(C)c3c(=O)[nH]c(C(F)(F)F)nc32)n1 | i | i | -0.8% | 7% | 1.8e-08
CCn1c(CSc2nc3ccccc3n2C)nc2ccccc21 | . | . | 0.5% | 4% | .
N#CCSc1nnc2c(Cl)cc(Cl)cn12 | i | i | -1.5% | -5% | 5.6e-08
CCOC(=O)c1cnc2c(Cl)cc(Cl)cc2c1NCCOCCO | . | . | 7.9% | 12% | .
Nc1nc(N)[n+]([O-])c(N)c1NCO | i | i | -2.3%[11.5 µM] | -8%[11.4 µM] | 4.2e-09
Cc1c(N=Cc2ccc(Cl)o2)c(=O)n(-c2ccccc2)n1C | i | i | 0.0% | . | 3.1e-08
CSc1nc(N)nc(SCC(=O)C23CC4CC(CC(C4)C2)C3)c1C#N | i | i | . | . | 2.9e-08
Cc1nc(SCC(=O)NCc2ccco2)c2oc3ccccc3c2n1 | i | i | 1.2% | 10% | 3e-08
COc1ccc(NC(=O)C2C3C=CC4(CN(Cc5cccnc5)C(=O)C24)O3)c(OC)c1 (configuration not stated) | i | i | 0.4% | 5% | 1e-09
O=S(=O)(c1ccc(Br)c2nsnc12)N1CCOCC1 | i | i | 0.2% | 13% | 7.1e-09
COC(=O)[C@@H]1CC[C@H](C)[C@@H](c2ccc(C)cc2)N1C(=O)c1ccc(/C=N\OCC[C@@H]2C=C[C@H](OC(C)=O)[C@H](COC(C)=O)O2)cc1 | . | . | 3.8%[11.5 µM] | 5%[11.4 µM] | .
O=c1[nH]n(-c2ncnc3c2cnn3-c2ccccc2)c(=O)c2ccccc12 | i | i | -1.8% | -14% | 1e-09
Cc1ccc(C2C3=C(CC(C)(C)CC3=O)NC3=C2C(=O)CC(C)(C)C3)o1 | i | i | 4.7% | 13µM* | 2.2e-09
Cc1nn(Cc2ccccc2)c(Cl)c1C(=O)OCc1nnc(-c2ccccc2)o1 | i | i | -0.4% | ? | 2.9e-09
CC(C)(C)OC(=O)N1CCC[C@H]1c1nnc(SCc2ccccc2Cl)o1 | i | i | -0.9% | . | 5e-09
CCOC(=O)CC(=O)CSc1ccc2nnc(-c3ccccc3)n2n1 | i | i | -0.1% | 2% | 3.8e-09
O=C(NCCCN1CCN(c2ccccc2F)CC1)Nc1ccc(F)cc1 | i | i | 0.4% | 4% | 2.3e-08
COc1ccc(-c2csc(Cc3nnc4n3CCCCC4)n2)cc1OC | i | i | -0.1% | 7% | 1e-09
O=C(NC1CCCCC1)n1c(=O)oc2ccccc21 | i | i | 2.8% | -7% | 1e-09

Only A488 autofl, AID923 and Resorufin fluor, for six of the compounds above:
molecule	A488 autofl	AID923	Resorufin fluor
Cc1ccc(C2C3=C(CC(C)(C)CC3=O)NC3=C2C(=O)CC(C)(C)C3)o1	i	4.7%	i
Cc1nn(Cc2ccccc2)c(Cl)c1C(=O)OCc1nnc(-c2ccccc2)o1	i	-0.4%	i
CC(C)(C)OC(=O)N1CCC[C@H]1c1nnc(SCc2ccccc2Cl)o1	i	-0.9%	i
CCOC(=O)CC(=O)CSc1ccc2nnc(-c3ccccc3)n2n1	i	-0.1%	i
O=C(NCCCN1CCN(c2ccccc2F)CC1)Nc1ccc(F)cc1	i	0.4%	i
COc1ccc(-c2csc(Cc3nnc4n3CCCCC4)n2)cc1OC	i	-0.1%	i

Entries listed so far with a furan ring, fused or not:
SMILES | Resorufin fluor | A488 autofl | AID923 | TSHR agonist | A647 fluor
Cc1c(N=Cc2ccc(Cl)o2)c(=O)n(-c2ccccc2)n1C | i | i | 0.0% | . | 3.1e-08
Cc1nc(SCC(=O)NCc2ccco2)c2oc3ccccc3c2n1 | i | i | 1.2% | 10% | 3e-08
Cc1ccc(C2C3=C(CC(C)(C)CC3=O)NC3=C2C(=O)CC(C)(C)C3)o1 | i | i | 4.7% | 13µM* | 2.2e-09

Carrying on:
SMILES | Resorufin fluor | A488 autofl | AID923 | TSHR agonist | A647 fluor
CCOc1ccccc1-n1c(SCC(=O)NC(C)(C)C)nnc1-c1ccoc1C | i | i | -2.5% | ? | 6.7e-09
Cc1ccc(CNC(=O)CCS(=O)(=O)c2cc(Br)cc3c2N(C(=O)C2CC2)CC3)o1 | i | i | 1.2% | 17% | 4.3e-08
C=CCc1cc(OC)ccc1OCCON1C(=O)CCC1=O | i | i | -0.7% | -12% | 5.8e-09
Cc1cc2cc(CN3C(=O)c4ccccc4C3=O)ccc2n1C | ? | i | 2.1% | -2% | 2.8e-08
Cc1ccc(OCC(=O)N2CCN(C3=NS(=O)(=O)c4ccccc43)CC2)cc1 | i | i | -2.9% | -3% | 1.5e-09
CCN(CCCNC(=O)C1CCN(S(=O)(=O)c2cnc[nH]2)CC1)c1cccc(C)c1 | i | i | 1.5% | 2% | 1.4e-08
CCN=C1SC(CC(=O)NC2CCCCC2)C(=O)N1CC (configuration not stated) | i | i | -1.6% | -1% | 1.3e-09
Clc1ccc(Cc2nnc(-c3cccs3)o2)cc1 | . | . | -1.7% | 9% | .
COc1ccc(C(=O)Nc2nc3nc(-c4ccccc4)cc(=O)n3[nH]2)cc1 | i | i | -1.4% | -12% | 4.3e-08
O=C(NCC1COc2ccccc2O1)c1ccco1 (configuration not stated) | . | . | 1.7% | -3% | .
CCOC(=O)Cn1nnnc1CN(Cc1ccccc1)Cc1cc2cc(CC)ccc2[nH]c1=O | i | i | 1.4% | ? | 1.1e-09
COc1ccc(/C=N\NC(=O)O)cc1 | i | i | -1.4%[11.5 µM] | 0%[11.4 µM] | 8.8e-09
COC(=O)c1ccccc1NC(=O)CNc1cc(Cl)ccc1N1CCOCC1 | i | i | 1.1% | ? | 2.9e-09
CC(C)OCCCNC(=O)CNC(=O)c1cccs1 | i | i | -0.4% | -1% | 2.6e-08
CC(=O)SCCC(=O)Nc1ccccc1 | i | i | 0.6% | -22% | 1.2e-09
O=C(Nc1cccc(F)c1)N1CC[C@@]2(CCCN(C(=O)c3ccco3)C2)C1 | i | i | 0.2% | ? | 2.2e-08
Oc1oc(-c2ccccc2)nc1C=NCc1ccncc1 | i | i | . | . | 3.7e-09
CN(C)c1ccc(-c2cc(Nc3ccc(F)cc3)ncn2)cc1 | i | i | 7.0% | -12% | 1.7e-08
O=C(NCc1ccc(N2CCCC2=O)cc1)Nc1ccccc1 | i | i | -0.6% | -5% | 1.8e-09
Cc1cccc(CNc2ncncc2-c2cccc(NS(C)(=O)=O)c2)c1 | i | i | -1.4% | ? | 1e-09
Cc1noc(C)c1CN1C(=O)NC2(CCc3ccccc3C2)C1=O (configuration not stated) | i | i | 1.0% | 1% | 4.9e-09
Cc1ccc2[nH]c(=O)c(CN(Cc3ccccc3Cl)C(=O)N3CCOCC3)cc2c1 | i | i | 0.9% | ? | 3.3e-08
CCCCCC(=O)Nc1ccc(N2CCN(C(=O)CCC)CC2)cc1 | i | i | 1.7% | 0% | 3.6e-08
COc1ccccc1-c1nc(N(C)C)c2ccccc2n1 | i | i | 1.6% | . | 1.5e-08
CCOC(=O)c1[nH]c(COC(=O)c2ccccc2NC(=O)c2ccco2)c(C(=O)OCC)c1C | i | i | 4.5% | 10% | 5.6e-09
SMILES | Resorufin fluor | A488 autofl | AID923 | TSHR agonist | A647 fluor
CCn1ncc(C2=NOC(C(=O)NCCc3ccccc3)C2)c1C (configuration not stated) | . | . | 1.5% | 1% | .
O=C(O)CCCNC1=NCCC1 | . | . | -0.5% | -3% | .
c1ccc(-n2ncc3c(N4CCN(c5ccccn5)CC4)nc(N4CCCCC4)nc32)cc1 | i | i | 1.2% | 1% | 4.2e-08
COc1ccc2[nH]cc(CCNc3nc(-c4ccccc4CN(C)C)nc4ccccc34)c2c1 | i | i | -1.2% | 4% | 1e-08
CCCn1c(-c2ccc(F)cc2)nc2c(N3CCN(C)CC3)nc(C)nc21 | . | . | -1.4% | ? | .
CC1CCCC(C)N1C(=O)CN1C(=O)C(C)(C)Oc2ccc(C(=O)NC3CCCC3)cc21 (configuration not stated) | i | i | 0.5% | 20% | 5e-09
CN(CC(=O)NCc1ccc2c(c1)OCO2)S(=O)(=O)c1ccc(Br)s1 | i | i | 2.6% | 5% | 2.5e-08
O=C(c1ccc(N2CCOCC2)nc1)N1CCCCC1 | i | i | -0.7% | 2% | 3.6e-08
N#CC1=C(N)Oc2n[nH]c(-c3ccccc3)c2C1c1ccncc1 (configuration not stated) | i | i | 8.0% | 12% | 1.1e-09
COc1ccc(OC)c(-n2c(C)nc3cc(C(=O)O)ccc32)c1 | i | i | -0.4% | -2%[11.4 µM] | 2.3e-08
CC(C)=CC(=O)Nc1nnc(-c2cccnc2)s1 | i | i | -1.7% | -17% | 1e-09
COC(=O)[C@H](N)Cc1ccc(Cl)cc1 | i | i | -4.0% | 7% | 1.8e-09
CCC(=O)N1CCc2cc(Br)cc(S(=O)(=O)NCCN3CCOCC3)c21 | i | i | -0.4% | -1%[11.4 µM] | 5e-09
COc1ccc(NC(=O)C=C(C)C)cc1Cl | i | i | 0.2% | 8% | 7.5e-09
Cc1ccc(C2C3=C(CC(C)(C)CC3=O)Nc3[nH]c(=S)[nH]c(=O)c32)cc1 (configuration not stated) | i | i | 2.8% | 4% | 2.9e-08
O=c1c(-c2cc(F)cc(F)c2)nc2cnc(Oc3ccccc3)nc2n1C1CC1 | i | i | 11% | -16% | 2.4e-08
CCOC(=O)CSc1nc(NCc2ccco2)c2ccccc2n1 | i | i | -0.6% | 18% | 1.8e-08
Cc1ccc(-n2c(C)cc(C3N=C(N)Nc4nc5ccccc5n43)c2C)c(C)c1 (configuration not stated) | i | i | -0.7% | -7% | 1e-09
Oc1ccc2ccccc2c1/C=N/n1cnnc1 | i | i | . | . | 1e-09
COc1ccc(C2SCCN2S(=O)(=O)c2ccc(F)cc2)cc1OC (configuration not stated) | i | i | -0.3% | 27% | 2.9e-08
C=CCNc1ncnc2c1ncn2C1OC(CO)C(O)C1O (configuration not stated) | i | i | 1.4% | ? | 5.8e-08
COc1cc(OC)c(C2CC(=O)N3CN(c4ccc(C)cc4)CSC3=C2C#N)cc1OC (configuration not stated) | i | i | 7.9% | 27% | 2.9e-09
Cc1cccnc1NC(=O)c1c(O)c2ccccc2n(C)c1=O | . | . | 8.4% | -5% | .
CCN(CC)CCCCn1c(-c2ccccc2)nc2c(NCc3ccccc3)nc(C)nc21 | . | . | -0.1% | 12% | .
c1ccc(-n2ncc3c2ncn2nc(CSc4nc5ccccc5s4)nc32)cc1 | i | i | -3.5% | 8% | 1.2e-08
O=C1CC(C(=O)Nc2ccc(O)c(C(=O)O)c2)C(c2ccccc2)O1 (configuration not stated) | i | i | 1.7% | -2% | 5e-09
CC(C)(C)SCCNS(=O)(=O)c1ccc(F)cc1 | . | . | 1.6% | 7% | .
COC(=O)c1nc(-c2ccccc2)oc1N(C)C | i | i | 1.6% | 0% | 4.4e-09
CCN(c1ccccc1)S(=O)(=O)c1ccc(F)cc1 | i | i | 0.2% | . | 1.6e-09

Bioassay records deposited in PubChem by National Center for Advancing Translational Sciences (NCATS).

These rows are one share of the data. The share of hits here may be higher or lower than overall.
